MbtI inh = blocks the Mycobacterium tuberculosis siderophore enzyme MbtI. purified MbtI enzyme, fluorescence intensity read-out. 0.89% of 100,000 active. inhibition, %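 (about 17 µg/mL by stock and volumes)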. P9WFX0;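 active = above 50% in both replicates, above 80% if mildly self-fluorescent; inactive = the rest, strongly fluorescent compounds included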;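 note: 0% = mean of negative and 100% = mean of positive controls; one replicate is shown; some compounds called inactive have numbers as strong as hits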
Target sequence (P9WFX0 whole entry, looked up): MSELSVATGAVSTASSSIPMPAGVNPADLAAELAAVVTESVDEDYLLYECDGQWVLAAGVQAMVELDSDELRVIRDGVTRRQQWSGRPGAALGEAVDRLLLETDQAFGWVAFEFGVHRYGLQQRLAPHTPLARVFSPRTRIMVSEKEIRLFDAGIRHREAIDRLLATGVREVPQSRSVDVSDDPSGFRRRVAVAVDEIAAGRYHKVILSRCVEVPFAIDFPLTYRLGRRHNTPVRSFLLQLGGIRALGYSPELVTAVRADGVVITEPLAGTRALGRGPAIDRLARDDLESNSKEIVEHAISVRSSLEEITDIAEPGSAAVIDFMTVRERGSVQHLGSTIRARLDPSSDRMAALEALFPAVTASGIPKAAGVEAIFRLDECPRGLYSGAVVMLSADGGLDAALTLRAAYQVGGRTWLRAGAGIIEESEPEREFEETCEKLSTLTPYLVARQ
Mtb MenB inh = Mtb MenB enzyme inhibition. MenB enzyme assay, absorbance read-out; some hits fall short of the stated cut. 0.43% of 100,000 active. inhibition, %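 (about 12 µg/mL by stock and volumes)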;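 active = mean of two replicates above 30%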;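 note: 0% = no compound and 100% = wells with inactive enzyme; the first replicate is given; strong numbers were not always called active; inactives centre near -10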
PV pol inh = poliovirus RNA polymerase inhibition | % elongation, % (compound at 16.7 µg/mL) | 0.66% of 150,000 active | P03300 | poliovirus polymerase elongation, fluorescence polarization; stronger effect = lower value; in the data active = % elongation below about 90%; note: some results filed as inactive read as strong as hits
Target sequence (P03300 1749-2209 limits assumed): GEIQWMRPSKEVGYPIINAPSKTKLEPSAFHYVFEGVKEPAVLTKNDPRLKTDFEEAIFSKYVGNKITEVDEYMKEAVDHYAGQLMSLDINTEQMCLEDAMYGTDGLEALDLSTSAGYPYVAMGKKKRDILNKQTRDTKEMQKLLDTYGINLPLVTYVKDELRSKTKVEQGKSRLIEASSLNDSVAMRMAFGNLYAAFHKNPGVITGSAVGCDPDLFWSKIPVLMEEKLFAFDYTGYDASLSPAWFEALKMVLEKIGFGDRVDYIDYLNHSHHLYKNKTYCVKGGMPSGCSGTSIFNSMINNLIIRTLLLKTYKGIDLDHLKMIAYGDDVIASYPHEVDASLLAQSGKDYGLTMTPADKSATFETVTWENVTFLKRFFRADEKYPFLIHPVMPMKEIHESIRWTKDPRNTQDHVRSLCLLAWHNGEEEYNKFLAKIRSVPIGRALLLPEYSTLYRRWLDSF
PV pol inh intensity = further read-out of PV pol inh, marked with its call; % elongation; measured here: total intensity read-out; formula for this scale not given here;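 total fluorescence in place of polarization; lower means less elongation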
The depositor's hits bear a star; & = joins results of further samples.

How did O=S(=O)(c1ccc(NCCc2ccccn2)nc1)N1CCCC1 do in these assays?
MbtI inh: 1.9; Mtb MenB inh: -25.3; PV pol inh: 102.0; PV pol inh intensity: 102.0

What do the screens show for `CC(C)c1nccn1CCC(=O)O`?
MbtI inh: -3.2; Mtb MenB inh: -17.9; PV pol inh: 101.0; PV pol inh intensity: 100.0

What do the screens show for `COc1cccc(C2C3=C(CC(C)(C)CC3=O)Nc3ccccc3N2C(C)=O)c1` (stereo unspecified)?
MbtI inh: 6.3; Mtb MenB inh: 4.9; PV pol inh: 101.0; PV pol inh intensity: 105.0

How did CCc1nn2c(=O)cc(COc3ccc(NC(=O)c4ccccc4)cc3)nc2s1 do in these assays?
MbtI inh: 10.8; Mtb MenB inh: -10.3; PV pol inh: 100.0; PV pol inh intensity: 104.0

Results for O=C1c2ccccc2C(=O)N1c1ncn[nH]1 ?
MbtI inh: 3.2; Mtb MenB inh: 23.8; PV pol inh: 99.0; PV pol inh intensity: 101.0

How did S=c1nc[nH]c2c1ncn2CN1CCCCC1 do in these assays?
Mtb MenB inh: 5.8; PV pol inh: 105.0; PV pol inh intensity: 106.0

What do the screens show for `O=C(Cn1c(=O)n(-c2ccc(F)cc2)c(=O)c2oc3ccccc3c21)NC1CCCCC1`?
MbtI inh: -6.1; Mtb MenB inh: -19.5; PV pol inh: 102.0; PV pol inh intensity: 106.0

What do the screens show for `Cc1cc2c(cc(C(=O)N3CCC(C(=O)NCc4ccc5c(c4)OCO5)CC3)n2Cc2c(F)cccc2Cl)o1`?
MbtI inh: -1.1; Mtb MenB inh: -13.3; PV pol inh: 101.0; PV pol inh intensity: 105.0

What do the screens show for `CC1(C)CC(NC(=O)c2ccccc2Cl)CC(C)(C)N1`?
MbtI inh: -4.4; Mtb MenB inh: -6.0; PV pol inh: 102.0; PV pol inh intensity: 104.0

How did CN(C)C(=O)COC(=O)Cn1cnc2ccccc21 do in these assays?
MbtI inh: -9.2; Mtb MenB inh: 4.1; PV pol inh: 100.0; PV pol inh intensity: 102.0

What do the screens show for `CCn1c(=O)c2cc(C(=O)N(C)CC(OC)OC)sc2c2ccccc21`?
MbtI inh: 18.6; Mtb MenB inh: -13.2; PV pol inh: 100.0; PV pol inh intensity: 100.0

How did Cc1[nH]c2ccccc2c1C(=O)CSc1nnc(C2CC2)n1C do in these assays?
MbtI inh: -14.6; Mtb MenB inh: 5.0; PV pol inh: 105.0; PV pol inh intensity: 109.0

Results for O=C(CSc1nc2ccccc2[nH]1)Nc1cccc(C(F)(F)F)c1 ?
MbtI inh: -15.4; PV pol inh: 103.0; PV pol inh intensity: 108.0

How did COc1ccc(C(=O)Cc2ccc(F)cc2)c(OC)c1 do in these assays?
MbtI inh: 6.3; Mtb MenB inh: 3.1; PV pol inh: 102.0; PV pol inh intensity: 107.0

How did O=C(CSc1nnc(CSc2nc3ccccc3s2)n1Cc1ccccc1)NC1CCS(=O)(=O)C1 (stereo unspecified) do in these assays?
MbtI inh: -1.8; Mtb MenB inh: -21.5; PV pol inh: 103.0; PV pol inh intensity: 111.0

How did FC(F)(F)c1cc(-c2ccco2)nc(NCCc2ccccc2)n1 do in these assays?
MbtI inh: 12.0; Mtb MenB inh: -24.4; PV pol inh: 101.0; PV pol inh intensity: 103.0

Results for CCCCC1CCC(C(=O)NCC(c2ccco2)N2CCCC2)CC1 (stereo unspecified) ?
MbtI inh: -2.8; Mtb MenB inh: -5.2; PV pol inh: 103.0; PV pol inh intensity: 103.0

What do the screens show for `CC1Sc2nnc(C(C)(C)C)n2N=C1c1ccc(Cl)cc1` (stereo unspecified)?
MbtI inh: 92.5; Mtb MenB inh: -1.2; PV pol inh: 76.0*; PV pol inh intensity: 80.0*

What do the screens show for `COC(=O)c1ccc(CSc2nnc(SCC(=O)c3ccc(C)cc3C)s2)o1`?
MbtI inh: -8.5; Mtb MenB inh: -80.5; PV pol inh: 103.0; PV pol inh intensity: 107.0

What do the screens show for `O=C(O)CSc1nc2ccc(Br)cc2[nH]1`?
MbtI inh: 0.5; Mtb MenB inh: -15.5; PV pol inh: 104.0; PV pol inh intensity: 106.0

Results for CC1(C(=O)N2CCOCC2)Cc2ccccc2C(=O)O1 (stereo unspecified) ?
MbtI inh: -5.2; Mtb MenB inh: -36.0; PV pol inh: 103.0; PV pol inh intensity: 108.0

What do the screens show for `CCOC(=O)c1cnc(Nc2nc3ccccc3o2)nc1CN1CCN(c2ccccc2)CC1`?
MbtI inh: -12.8; Mtb MenB inh: -12.7; PV pol inh: 103.0; PV pol inh intensity: 107.0

How did O=C(OCc1c(Cl)nc2sccn12)c1ccc(F)cc1Cl do in these assays?
MbtI inh: 1.5; PV pol inh: 102.0; PV pol inh intensity: 98.0

What do the screens show for `CCCN1C(=O)/C(=N\OCc2ccc(C#N)cc2)c2ccccc21`?
MbtI inh: 9.6; Mtb MenB inh: -16.8; PV pol inh: 97.0; PV pol inh intensity: 100.0

What do the screens show for `C/C(=N\OC(=O)Nc1c(-c2c(Cl)cccc2Cl)noc1C)C(C)(C)C`?
MbtI inh: -2.2; Mtb MenB inh: -18.9; PV pol inh: 102.0; PV pol inh intensity: 95.0

Results for Cn1c(SC2CCOC2=O)nc2ccccc2c1=O (stereo unspecified) ?
MbtI inh: -0.1; Mtb MenB inh: 4.3; PV pol inh: 103.0; PV pol inh intensity: 103.0

How did Cc1cccc(CN2CCC(CNc3ncnc4onc(-c5ccc(F)cc5)c34)CC2)c1 do in these assays?
MbtI inh: -11.5; Mtb MenB inh: 13.4; PV pol inh: 101.0; PV pol inh intensity: 101.0

Results for CN(C)c1ccc(NC(=O)NCC2CCCC(CNC(=O)Nc3ccc(N(C)C)cc3)C2)cc1 (stereo unspecified) ?
MbtI inh: 13.3; Mtb MenB inh: 2.5; PV pol inh: 99.0; PV pol inh intensity: 101.0

How did COc1cc(/C=N/n2cnnc2)ccc1OCC(=O)N1CCOCC1 do in these assays?
MbtI inh: -20.5; Mtb MenB inh: 5.2; PV pol inh: 103.0; PV pol inh intensity: 103.0

How did CCOc1cccc(C=Nc2ccc(Br)cn2)c1O do in these assays?
MbtI inh: 1.4; Mtb MenB inh: -3.4; PV pol inh: 97.0; PV pol inh intensity: 100.0

Results for O=c1cc(Cl)c2ccccc2o1 ?
MbtI inh: 11.1; Mtb MenB inh: -6.4; PV pol inh: 99.0; PV pol inh intensity: 100.0

Results for O=C(N/N=C/c1ccccc1O)NC12CC3CC(CC(C3)C1)C2 ?
MbtI inh: 6.3; Mtb MenB inh: -30.2; PV pol inh: 101.0; PV pol inh intensity: 102.0

What do the screens show for `COC(=O)c1sccc1NC(=O)CC1C(=O)NCCN1C(=O)Nc1ccccc1` (stereo unspecified)?
MbtI inh: -7.1; Mtb MenB inh: -25.9; PV pol inh: 103.0; PV pol inh intensity: 100.0

How did COc1ccc(NC(=O)CN2CC(C)OC(C)C2)cc1OC (stereo unspecified) do in these assays?
MbtI inh: 3.1; Mtb MenB inh: -7.7; PV pol inh: 99.0; PV pol inh intensity: 104.0

How did CN(C(=O)c1ccccc1)c1ccc(OCC(=O)N2CCc3ccccc3C2)cc1 do in these assays?
MbtI inh: -3.8; PV pol inh: 101.0; PV pol inh intensity: 107.0

How did Cc1ccccc1Cn1c(Cc2ccccc2)nc2ccccc21 do in these assays?
MbtI inh: -11.9; Mtb MenB inh: -35.5; PV pol inh: 105.0; PV pol inh intensity: 108.0

Compounds from the list above with an NH in an aromatic ring (5):
Results for O=C1c2ccccc2C(=O)N1c1ncn[nH]1 ?
MbtI inh: 3.2; Mtb MenB inh: 23.8; PV pol inh: 99.0; PV pol inh intensity: 101.0

How did S=c1nc[nH]c2c1ncn2CN1CCCCC1 do in these assays?
Mtb MenB inh: 5.8; PV pol inh: 105.0; PV pol inh intensity: 106.0

How did Cc1[nH]c2ccccc2c1C(=O)CSc1nnc(C2CC2)n1C do in these assays?
MbtI inh: -14.6; Mtb MenB inh: 5.0; PV pol inh: 105.0; PV pol inh intensity: 109.0

Results for O=C(CSc1nc2ccccc2[nH]1)Nc1cccc(C(F)(F)F)c1 ?
MbtI inh: -15.4; PV pol inh: 103.0; PV pol inh intensity: 108.0

What do the screens show for `O=C(O)CSc1nc2ccc(Br)cc2[nH]1`?
MbtI inh: 0.5; Mtb MenB inh: -15.5; PV pol inh: 104.0; PV pol inh intensity: 106.0

Remaining list, next part.
How did NC(=O)c1c(N)c(C(N)=S)n2c1CCC2 do in these assays?
MbtI inh: 26.1; Mtb MenB inh: -25.9; PV pol inh: 103.0; PV pol inh intensity: 106.0

How did C=CCNS(=O)(=O)c1ccc(C)cc1 do in these assays?
Mtb MenB inh: -2.4; PV pol inh: 108.0; PV pol inh intensity: 110.0

How did CCCCC(CC)CN1CN(CC(CC)CCCC)CC(C)(N)C1 (stereo unspecified) do in these assays?
MbtI inh: -9.6&-19.2; Mtb MenB inh: -27.2&-9.9; PV pol inh: 103.0&100.0; PV pol inh intensity: 97.0&100.0

Results for O=C(Cn1cccc1C(=O)c1ccccc1)NCc1ccccn1 ?
MbtI inh: -1.5; Mtb MenB inh: -3.0; PV pol inh: 101.0; PV pol inh intensity: 100.0

Results for CCn1cc(C2=NOC(C(=O)NCc3ccccc3)C2)c(C)n1 (stereo unspecified) ?
MbtI inh: -10.2; Mtb MenB inh: 2.5; PV pol inh: 101.0; PV pol inh intensity: 102.0

How did COc1cccc(CNC(=O)c2ccc3c(c2)N(C)CCS3)c1 do in these assays?
MbtI inh: 118.6; Mtb MenB inh: -14.2; PV pol inh: 99.0; PV pol inh intensity: 100.0

Results for O=C(CCn1c(=O)[nH]c2ccsc2c1=O)Nc1ccc(F)c(F)c1 ?
MbtI inh: -6.9; Mtb MenB inh: -12.7; PV pol inh: 99.0; PV pol inh intensity: 102.0

What do the screens show for `O=C(NCCN1C(=O)S/C(=C\c2ccc(OC(F)F)cc2)C1=O)C1COc2ccccc2O1` (stereo unspecified)?
MbtI inh: 2.4; Mtb MenB inh: -5.8; PV pol inh: 108.0; PV pol inh intensity: 109.0

How did O=C(OC(C(=O)NC1CCCC1)c1ccccn1)c1cccs1 (stereo unspecified) do in these assays?
MbtI inh: -8.7; Mtb MenB inh: -55.4; PV pol inh: 104.0; PV pol inh intensity: 103.0

How did COc1cccc(C(=O)N(Cc2nc(-c3ccccc3)no2)C(C)C)c1 do in these assays?
MbtI inh: -2.6; Mtb MenB inh: -0.1; PV pol inh: 102.0; PV pol inh intensity: 104.0

What do the screens show for `S=c1nc(-c2ccccc2)oc2c1CCCC2`?
MbtI inh: 13.7; Mtb MenB inh: -39.9; PV pol inh: 102.0; PV pol inh intensity: 106.0

How did CC(C)NC(=S)N/N=C/c1cn(-c2ccccc2)nc1-c1cccs1 do in these assays?
MbtI inh: 66.2; Mtb MenB inh: -60.6; PV pol inh: 105.0; PV pol inh intensity: 112.0

Results for CCC(C)Cc1c(C)sc2[nH]c(=S)[nH]c(=O)c12 (stereo unspecified) ?
MbtI inh: 11.6; Mtb MenB inh: -31.4

Results for CC(C)CNS(=O)(=O)c1ccc(S(=O)(=O)N2CCN(c3ccccc3)CC2)cc1 ?
MbtI inh: -11.7; Mtb MenB inh: -34.8; PV pol inh: 106.0; PV pol inh intensity: 101.0

What do the screens show for `CCOc1cc(-c2noc(CCCC(=O)N3CCOCC3)n2)cc(Br)c1OC`?
MbtI inh: 8.2; Mtb MenB inh: -1.8; PV pol inh: 102.0; PV pol inh intensity: 102.0

How did CC(=O)Nc1ccc(NC(=O)CCSc2ccccc2)cc1 do in these assays?
MbtI inh: 3.9; Mtb MenB inh: -22.4; PV pol inh: 99.0; PV pol inh intensity: 98.0

Results for CC/C(=N\NC(=O)c1ccncc1)c1cccc(Cl)c1 ?
MbtI inh: 11.2; Mtb MenB inh: -9.2; PV pol inh: 100.0; PV pol inh intensity: 103.0

How did O=C(/C=C/c1ccco1)C1(O)CCCCC1 do in these assays?
Mtb MenB inh: 16.0; PV pol inh: 106.0; PV pol inh intensity: 121.0

What do the screens show for `O=C(Nc1ccn(C2OC(CO)C(O)C2O)c(=O)n1)c1ccccc1` (stereo unspecified)?
Mtb MenB inh: 1.7; PV pol inh: 103.0; PV pol inh intensity: 107.0

How did CC1CCN(c2ccc(NC(=O)c3ccccc3)cc2)CC1 do in these assays?
MbtI inh: -2.8; Mtb MenB inh: -58.6; PV pol inh: 99.0; PV pol inh intensity: 100.0

How did CC1(C)CC(=O)c2c(Cc3ccccc3)noc2C1 do in these assays?
MbtI inh: -14.3; PV pol inh: 102.0; PV pol inh intensity: 100.0

How did O=C(NCc1ccco1)Nc1c[nH]c2ccc(F)cc2c1=O do in these assays?
MbtI inh: 89.8; Mtb MenB inh: -54.4; PV pol inh: 101.0; PV pol inh intensity: 101.0

What do the screens show for `O=C(COc1ccc(Br)cc1CO)NCC(F)(F)F`?
MbtI inh: -23.9; Mtb MenB inh: -17.1; PV pol inh: 105.0; PV pol inh intensity: 108.0

Results for Cc1nn2c(-c3ccccc3)nnc2c2ccccc12 ?
MbtI inh: 12.3; Mtb MenB inh: 11.9; PV pol inh: 102.0; PV pol inh intensity: 98.0

How did CCOC(=O)c1c(C)[nH]c(C)c1C(=O)COC(=O)c1ccc(Cl)c(S(N)(=O)=O)c1 do in these assays?
MbtI inh: -6.1; Mtb MenB inh: 5.5; PV pol inh: 107.0; PV pol inh intensity: 116.0

Results for CC(C)(C)NC(=O)[C@@H]1Cc2ccccc2CN1 ?
MbtI inh: -5.5; Mtb MenB inh: 10.0; PV pol inh: 100.0; PV pol inh intensity: 105.0

How did O=S(=O)(NN1CCOCC1)c1ccc2ccccc2c1 do in these assays?
MbtI inh: 4.1; Mtb MenB inh: 12.1; PV pol inh: 101.0; PV pol inh intensity: 102.0
